Screening results deposited in PubChem BioAssay by National Center for Advancing Translational Sciences (NCATS).
StopGo RLuc: lowers the Renilla signal of an FMDV 2A StopGo reporter | HEK cells with a luciferase reporter of 2A StopGo recoding | actives 0.32% (n = 120,000) | Potency, µM (series often up to 57.5 µM), inactives show at the highest dose signal change, negative = less light; active means well fitted falling curve with a large enough effect; inconclusive means small, poorly fitted or top-dose-only effect; inactive means no such curve, though single readings can be large or run the other way; further: nearly all actives have a fitted effect of over 55% in size; overnight with compound
StopGo FLuc: lowers the firefly signal of an FMDV 2A StopGo reporter; HEK cells with a luciferase reporter of 2A StopGo recoding; Potency, µM (titrated, usually from 57.5 µM), for the others: at the highest dose signal change, negative = less light; actives 0.23% (n = 120,000); active = well fitted falling curve with a large enough effect; inconclusive = small, poorly fitted or top-dose-only effect; inactive = no such curve, though single readings can be large or run the other way; further: nearly all actives have a fitted effect of over 60% in size; overnight with compound
* hit, by the source's call; u = inconclusive; [ ] = remark or other dose. On the % scale 0 is the no-effect control and ±100 the full control effect; potency means the concentration at half of the fitted maximal effect. Only part of the results is shown; the hit share may differ from the screen's.

Screens in order – StopGo RLuc	StopGo FLuc
1: COc1cccc(NC(=O)C2CCCN(c3nnc(-n4c(C)ccc4C)s3)C2)c1 (stereo not given)
→ 25%	14%
2: O=C(Nc1ccc2ccccc2n1)c1ccc(S(=O)(=O)NC2CC2)cc1
→ -4%	-2%
3: COc1ccc(-c2nc(C)c(CCNC(=O)c3cccs3)s2)cc1
→ 18%	293%[activator]
4: CC1CCN(C(=O)C2CCCN(C(=O)c3ccc4cc[nH]c4c3)C2)CC1 (stereo not given)
→ 29%	45%[activator]
5: CCOC(=O)c1sc2ccccc2c1S(=O)(=O)N1CCN(c2ccccc2F)CC1
→ 64%[activator]	-13%
6: CC(Oc1ccc(F)cc1)C(=O)Nc1cc(-c2ccc(F)c(F)c2)no1 (stereo not given)
→ -3%	4%
7: CCCc1noc(COc2ccc3c(C)cc(=O)oc3c2)n1
→ 0%	124%[activator]
8: Cn1nc(C(=O)N2CCCC2c2nc3ccccc3s2)c2ccccc2c1=O (stereo not given)
→ -7%	-3%
9: COc1ccc(NC(=O)Nc2nnc(CC(=O)Nc3ccccc3)s2)cc1
→ -3%	11%
10: CCOC(=O)/C(C#N)=C\c1ccc(-c2cccc(C(F)(F)F)c2)o1
→ -8%	-6%
11: Nn1c(SCC(=O)NCCc2ccc(Cl)cc2)nnc1-c1ccco1
→ -17%	-14%
12: Cc1ccc(-c2nc(CNS(=O)(=O)c3ccc(Cl)cc3)c(C)o2)cc1
→ 28%	3%
13: CCC1CCCCN1C(=O)Cn1cccc1-c1nc(-c2ccc(F)cc2)no1 (stereo not given)
→ 9%	19%
14: CCCCc1cc(=O)oc2cc(C)cc(OCC(=O)NCc3ccccn3)c12
→ 45%[activator]	17%
15: N#C/C(=C/c1ccco1)c1nc2ccccc2[nH]1
→ 48%[activator]	181%[activator]
16: O=C(Nc1cc(Cl)cc(Cl)c1)c1ccc2ccccc2n1
→ -8%	0%
17: COc1cc(/C=C/c2ccc3cccc(OC(C)=O)c3n2)cc(OC)c1OC(C)=O
→ 1%	110%[activator]
18: C/C(=N/O)c1ccc(-n2ccnc2)cc1
→ -10%	32%[activator]
19: CCCc1ccc(-c2ccc(C(=O)OCC)cc2)nc1
→ -2%[1.06 µM]	75%[activator]
20: Cc1cccc(Oc2nc3c(c(=O)n(C)c(=O)n3C)n2C)c1
→ -9%	0%
21: COc1cc2nc(NCCc3ccccc3)n3nc(-c4cccnc4)nc3c2cc1OC
→ 13%	17%
22: COc1ccc(Cn2ccnc2SCC(=O)Nc2nnc(C)s2)cc1
→ 7%	19%
23: CCC(C)[C@H](NC(=O)OC(C)(C)C)c1nnc(SCC(=O)OC)o1 (stereo not given in full)
→ -1%	-7%
24: CSc1ncc(Cl)c(C(=O)Nc2c(C(=O)c3ccc(C)cc3)oc3ccccc23)n1
→ -6%	-8%
25: CCOC(=O)c1ccc2c3c(cccc13)CC2
→ 7%	0%
26: CCN(CC)S(=O)(=O)c1ccc2c(c1)c(=O)c(C(=O)N1CCN(c3ccc(F)cc3)CC1)cn2C
→ -20%	-37%
27: COc1cccc(OC)c1C(=O)C1CC(=O)Nc2c1c(C)nn2-c1cccc(C)c1C (stereo not given)
→ 16%	11%
28: S=c1sc2c(s1)SCC1(CS2)OCCO1
→ 8%	0%
29: CSc1nn(Cc2ccc(Br)cc2)c(N(C(C)=O)C(C)=O)c1S(=O)(=O)c1ccccc1
→ 130%[activator]	-5%
30: Cc1cc(Nc2ccc(F)c(F)c2)n2nc(-c3ccco3)nc2n1
→ 5%	7%
31: Cc1nc2nc(NCc3ccc(Cl)cc3)[nH]n2c(=O)c1Cc1ccccc1
→ 4%	-6%
32: Cc1ccc(NC(=O)CSc2nc(C3CCCC3)nc3c2c(=O)n(C)c(=O)n3C)c(C)c1
→ -11%	-2%
33: CC(=O)Nc1ccc(NC(=O)c2cc(C)nc3ccccc23)cc1
→ 18%	0%
34: CCOc1ccc(CNc2cccc(C)c2)cc1
→ u	114%[activator]
35: O=[N+]([O-])c1ccc(O)c2ncccc12
→ u	u
36: CS(=O)(=O)Cc1cccc(C(=O)NCc2ccccc2F)c1
→ 3%	-2%
37: CNC(=O)c1ccccc1OCc1coc(-c2cccc(F)c2)n1
→ 25µM*	u
38: CCOc1ccccc1OCC(=O)Nc1ccc2oc(C)nc2c1
→ 35%[activator]	74%[activator]
39: COc1ccc(OC)c(-n2c(-c3ccc(F)cc3)cn3c4c(=O)[nH]c(=O)n(C)c4nc23)c1
→ 3%	6%
40: O=C(CC(=O)N/N=C/c1ccccc1[N+](=O)[O-])N/N=C/c1ccccc1[N+](=O)[O-]
→ 42%[activator]	0%
41: Nc1ccc(NC(=O)c2cccc(C(=O)Nc3ccc(N)cc3Cl)c2)c(Cl)c1
→ 42%[activator]	45%[activator]
42: Clc1ccc2c(c1)C(c1ccccc1)=Nc1ccc(Cl)cc1C(c1ccccc1)=N2
→ 12%	0%
43: O=C(/C(Br)=C/Nc1cc(Cl)cc(Cl)c1)C(F)(F)F
→ -3%	-5%
44: CCOC(=O)c1c(CSc2ccccc2)n(C)c2cc(Br)c(OCC(O)CNC3CCCCC3)cc12 (stereo not given)
→ -1%	-8%
45: CCC(NC(=O)/C=C/c1ccccc1)c1cccs1 (stereo not given)
→ 15%	0%

Part of the list above, with one line to a screen:
31: Cc1nc2nc(NCc3ccc(Cl)cc3)[nH]n2c(=O)c1Cc1ccccc1
45: CCC(NC(=O)/C=C/c1ccccc1)c1cccs1 (stereo not given)
38: CCOc1ccccc1OCC(=O)Nc1ccc2oc(C)nc2c1
42: Clc1ccc2c(c1)C(c1ccccc1)=Nc1ccc(Cl)cc1C(c1ccccc1)=N2
36: CS(=O)(=O)Cc1cccc(C(=O)NCc2ccccc2F)c1
40: O=C(CC(=O)N/N=C/c1ccccc1[N+](=O)[O-])N/N=C/c1ccccc1[N+](=O)[O-]
Assay by compound | 31 | 45 | 38 | 42 | 36 | 40
StopGo RLuc | 4% | 15% | 35%[activator] | 12% | 3% | 42%[activator]
StopGo FLuc | -6% | 0% | 74%[activator] | 0% | -2% | 0%

Following part:
Screens in order – StopGo RLuc	StopGo FLuc
46: Cc1ccc(C)c(C(C)NC(=O)c2ccco2)c1 (stereo not given)
→ 3%	5%
47: CCn1c(=O)cc(SCC(=O)NCCc2ccc(OC)cc2OC)c2ccccc21
→ 33%[activator]	4%
48: CCCCC(=O)Nc1cccc(-c2nc3ccccc3s2)c1
→ 99%[activator]	172%[activator]
49: COc1cc(NC(=O)c2sc3ncnc(N(C)c4ccccc4)c3c2C)cc(OC)c1OC
→ u	u
50: C#CC(O)(C=CCl)CC (stereo not given)
→ -1%	-6%[11.5 µM]
51: COc1cccc(NC(=O)/C(C#N)=C/c2ccc(-c3ccc(C)cc3)o2)c1
→ 21%	0%
52: O=c1[nH]c2sc3c(c2c2nc(-c4ccccc4)nn12)CCC3
→ 21%	66%[activator]
53: CC(C)NC(=O)C(C)Sc1ncnc2ccccc12 (stereo not given)
→ -13%	-1%
54: Cc1oc(-c2ccccc2)nc1C(=O)NC(C)c1ccc(C(F)(F)F)cc1 (stereo not given)
→ -8%	-6%
55: Fc1ccccc1N1CCN(c2ncc3c(n2)CCN(Cc2ccc(Br)s2)C3)CC1
→ -10%	-2%
56: CCOc1ccc(CCNC(=O)C2CCN(C(=O)c3cc4sccc4n3CC)CC2)cc1OCC
→ u	u
57: CCOc1ccc2oc(=O)cc(-c3cc4cccc(OC)c4o3)c2c1
→ -3%	-6%
58: Cc1cc(C(=O)N(Cc2ccco2)Cc2cccs2)ccc1-n1cnnn1
→ 108%[activator]	-4%
59: COC(=O)c1cc(-c2cc(C(F)(F)F)ccc2Cl)oc1C
→ 2%	-5%
60: Cc1ccc(S(=O)(=O)N2CCN(c3nc(-c4cccnc4)nc4ccccc34)CC2)cc1C
→ 14%	24%
61: Cc1cc(NC(=O)c2ccoc2)ccc1N1CCCC1=O
→ 0%	92%[activator]
62: Cc1cccc(Nc2nc(C)nc(N)c2S(=O)(=O)c2ccccc2)c1
→ 23%	-15%
63: Cc1c(C(=O)N(C)C)sc2c1c(=O)n(-c1ccc(F)cc1)c(=O)n2Cc1ccccc1C#N
→ u	u
64: CCC1(c2ccc(NC(=O)c3ccc(OC)c(OC)c3)cc2)CCC(=O)NC1=O (stereo not given)
→ 6%	29%
65: CC1Cc2ccccc2N1C(=O)CSc1nnc(-c2cccc(Cl)c2)o1 (stereo not given)
→ -9%	3%
66: CCOC(=O)/C=C(C)/C=C/C=C(C)/C=C/c1c(C)cc(OC)c(C)c1C
→ -8%	-11%[11.5 µM]
67: CCCS(=O)(=O)N1CC(=O)N(c2cccc(F)c2)C(C)(C(=O)NC2CCCCCC2)C1 (stereo not given)
→ 3%	-22%
68: CSc1ccccc1C(=O)NC(C)(C#N)C1CC1 (stereo not given)
→ -11%[1.06 µM]	-13%
69: O=C(NCc1ccc(F)cc1)c1cnc(N2CCCCC2)c2ccccc12
→ 38%[activator]	-8%
70: Cn1c(=O)oc2cc(S(=O)(=O)CCC(=O)NCCc3ccccc3)ccc21
→ -6%	-2%
71: O=c1c2ccccc2nc(/C=C/c2ccccc2F)n1-c1cccc(O)c1
→ 14%	0%
72: O=C1NCCCCC1Sc1ccc2c(c1)OCCCO2 (stereo not given)
→ 17%	151%[activator]
73: O=S1(=O)c2ccc(N3CCCC3)cc2Oc2ccccc2CN1Cc1cn(Cc2cccc(C(F)(F)F)c2)nn1
→ 93%[activator]	9%
74: Cc1ccc(OC(=O)CSc2nnc(-c3cccs3)o2)cc1C
→ -9%	-14%
75: COc1cccc(NC(=O)c2sc3nc(C)c(C(=O)Nc4ccc(C)cc4C)c(-c4cccs4)c3c2N)c1
→ -5%	-4%
76: CC1CC(C)(C)Nc2c(O)cccc21 (stereo not given)
→ -10%	14%
77: CCOc1ccc(OCc2cccc(C(=O)OCC3CCCO3)c2)cc1 (stereo not given)
→ 20%	u
78: COc1cc(CCC(=O)NCc2ccoc2)cc(OC)c1
→ -14%	-13%
79: CC(NC(=O)c1cc2ccccc2o1)c1ccccc1 (stereo not given)
→ 8%	27%
80: CCCNC(=O)COC(=O)c1cn(C)c2ccccc12
→ -5%	8%
81: O=C1OCCC1Sc1ccc2c(c1)OCCO2 (stereo not given)
→ 6%	-3%
82: CC(c1ccccc1)N(C)S(=O)(=O)c1cccc2nsnc12 (stereo not given)
→ 59%[activator]	21%
83: CCC(=O)N1N=C(c2c(-c3ccccc3)c3cc(Cl)ccc3n(C)c2=O)CC1c1ccco1 (stereo not given)
→ -3%	-11%
84: O=C(c1cn[nH]c1-c1ccc(Cl)cc1)N1CCCCC1
→ 9%	8%
85: CCC(C(=O)NCc1cccc(Br)c1)n1nc(C)c2c(C)n(-c3ccccc3)nc2c1=O (stereo not given)
→ -10%	-35%
86: Cc1ccc(S(=O)(=O)N2CCN(c3ncnc4c3nnn4-c3ccccc3)CC2)c(C)c1
→ 3%	16%
87: COC(=O)/C=C\C(=O)OC
→ 1%	-2%[11.5 µM]
88: Cc1cc(COc2ccc(C(=O)c3ccc(F)cc3)cc2)no1
→ 7%	0%
89: Cc1oc(-c2cccc(Cl)c2)nc1CNC(=O)Nc1ccccc1Cl
→ 1%	5%
90: O=C(Nc1cccc(C(F)(F)F)c1)c1cn2c3c(cccc3c1=Nc1cccc(C(F)(F)F)c1)CCC2
→ 2%	17%
91: CCC(CC)C(=O)Nc1ccc(C)cc1C
→ 10%	20%
92: C=Cc1ccc(Cn2c(C)c(CNCCc3ccccc3C)c(C(=O)O)c2C)cc1
→ -6%	-14%
93: CCCCc1ccc(NC(=O)C(=O)NCCN2CCN(C(=O)c3ccc(C)cc3)CC2)cc1
→ -4%	-1%
94: Cc1ccc(NS(=O)(=O)c2cccc(C(=O)N(C)C(C)c3nc4ccccc4s3)c2)cc1 (stereo not given)
→ -24%	-10%
95: CC(C)(C)c1ccc(NC(=O)CCC(=O)O)cc1
→ 2%[1.06 µM]	-4%
96: O=C(c1cc(-c2ccccn2)nc2ccccc12)N1CCN(c2ncccn2)CC1
→ 5%	6%
97: COc1ccc(-c2cc(OC(=O)c3cccc(Cl)c3)c3c(C)oc(C)c3c(=O)c2)cc1OC
→ 53%[activator]	-21%
98: O=C1/C(=C/c2ccc(F)c(F)c2)Cc2ccccc21
→ 17%	86%[activator]
99: CCN(CC)CCn1c(SCC(=O)Nc2cccc(OC)c2)nc2c(sc3ccccc32)c1=O
→ 0%	14%
100: CCN1CCC(NC(=O)NCCc2cccc3cccnc23)CC1
→ -1%	5%
101: CC(C)c1nnc2sc(/C=C/c3ccc4c(c3)OCO4)nn12
→ -11%	202%[activator]
102: CCc1ccc(C2c3c(n[nH]c3C)C(=O)N2c2ccc(C)cc2)cc1 (stereo not given)
→ 13%	187%[activator]
103: N#CCSc1cc(C(=O)NC2CC2)c2ccccc2n1
→ 4%	9%
104: COc1cccc(NC(=O)Cn2c(=O)n(Cc3ccc(C(=O)NCc4ccc(C)cc4)cc3)c(=O)c3ccccc32)c1
→ 0%	3%
105: Cc1cc(N2CCN(c3ccccc3)CC2)n2cnnc2n1
→ u	u

(list continues)
Screens in order – StopGo RLuc	StopGo FLuc
106: COc1ccc(C2=C(C)C(=O)N(Cc3ccc(C(=O)NCc4ccc(C)cc4)cc3)S2(=O)=O)cc1
→ u	u
107: CCOc1ccccc1NC(=O)c1cc(=O)c2ccc(C)cc2o1
→ 4%	-19%
108: CCCCC(=O)NCc1ccc(-c2nc3ccccc3s2)cc1
→ -6%	159%[activator]
109: CC(C)Cn1c(=O)c(CCC(=O)Nc2ccc(N3CCOCC3)cc2)nc2cc(Cl)ccc21
→ -5%	1%
110: CCn1c(=N)c(C(=O)NC2CCCC2)cc2c(=O)n3ccccc3nc21
→ -4%	-6%
111: CCOc1ccccc1N1C(=O)CC(Sc2nc(C)c3cc(OC)ccc3n2)C1=O (stereo not given)
→ 2%	68%[activator]
